Screening results as filed in PubChem.
Marburg entry inh – qHTS for inhibitors of binding or entry into cells for Marburg Virus; Marburg virus pseudotyped entry inhibition, cell reporter; control for the full effect not named in the record; about a third of the inactives were read at about 46 µM; Potency, µM (highest dose often 37.8 µM), without a hit: at the top dose activity change, negative = inhibition, usual class: inhibitors; 300,000 compounds, 1.8% hits; AID 540276, 2011; active = well fitted inhibition curve with a large enough effect; inconclusive = small, poorly fitted or top-dose-only effect, or effect the other way; inactive = flat fitted curve, though single readings scatter; tested in HEK293 cells; about a fifth of its hits are not listed in these tables; note: % is set by controls: 0 for no effect and ±100 for the full control effect; luciferase read-out
NS1 inh – qHTS Assay for Inhibitors of Influenza NS1 Protein Function | S. cerevisiae slowed by influenza A NS1, growth recovery by OD600 | Potency, µM (series often up to 46.1 µM), for inactives: at the top dose activity, positive = more growth | 270,000 compounds, 0.4% hits | AID 2326, 2010; active means well fitted rising curve with a large enough effect; inconclusive means small, poorly fitted or top-dose-only effect; inactive means no such curve, though single readings can be large or run the other way; note: nearly all actives have a fitted effect of over 50% in size
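OD600 was taken as the measure of yeast growth restored by compound in an NS1-expressing S. cerevisiae strain. Cells had been washed out of glucose medium and diluted 1:100 into galactose -URA medium, pH 6.0.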
Cruzain inh noDet – qHTS Assay for Promiscuous and Specific Inhibitors of Cruzain (without detergent) | Cruzipain (Trypanosoma cruzi), P25779 | purified cruzain, Z-FR-AMC fluorescence, no detergent | Potency, µM, without a hit: max response, negative = inhibition, actives largely listed as inhibitors | 200,000 compounds, 2.3% hits | AID 1476, 2009;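 note: plate controls were enzyme without inhibitor for no effect and buffer without enzyme for full effect; nearly all actives have a fitted effect of over 40% in size; top concentration of the series not given in the record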
Target sequence (P25779 123-467 limits assumed): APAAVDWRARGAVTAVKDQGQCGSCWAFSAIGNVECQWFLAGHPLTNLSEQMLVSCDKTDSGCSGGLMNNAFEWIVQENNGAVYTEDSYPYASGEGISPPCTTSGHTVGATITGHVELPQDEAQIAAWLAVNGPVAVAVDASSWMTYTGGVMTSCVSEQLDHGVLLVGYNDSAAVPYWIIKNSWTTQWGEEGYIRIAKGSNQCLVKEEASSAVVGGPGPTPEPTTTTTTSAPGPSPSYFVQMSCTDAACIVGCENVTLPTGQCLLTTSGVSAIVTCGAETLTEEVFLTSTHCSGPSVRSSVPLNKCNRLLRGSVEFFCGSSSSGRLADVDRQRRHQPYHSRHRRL
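Purified cruzain at 1.5 nM, pre-incubated 15 min with compound at room temperature in 100 mM sodium acetate pH 5.5, 5 mM DTT, 0.00005% Triton X-100. Reaction started with 2 uM Z-FR-AMC; AMC fluorescence increase over 60 s gives rate.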
SARS PLpro yeast – qHTS of Yeast-based Assay for SARS-CoV PLP; S. cerevisiae expressing SARS-CoV PLpro, growth rescue; control for the full effect not named in the record; Potency, µM (titrated, usually from 32.9 µM), inactives show at the top dose activity, positive = growth rescue; 330,000 compounds, 0.19% hits; active means well fitted rising curve with a large enough effect; inconclusive means small, poorly fitted or top-dose-only effect; inactive means no such curve, though single readings can be large or run the other way; note: 0% is about no effect; nearly all actives have a fitted effect of over 55% in size; growth read by luminescence after 48 h
RE007 growth inh – qHTS Assay for Inhibitors of the HIV-1 protein Vpr; S. pombe RE007 Vpr strain, BacTiter-Glo ATP luminescence, 24 h; control for the full effect not named in the record; Potency, µM (series often up to 92.2 µM), for inactives: top-dose activity change, negative = less growth; 360,000 compounds, 0.21% hits; active = well fitted falling curve with a large enough effect; inconclusive = small, poorly fitted or top-dose-only effect; inactive = no such curve, though single readings can be large or run the other way;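 note: % is set by controls: 0 for no effect and ±100 for the full control effect; nearly all actives have a fitted effect of over 50% in size; the assay follows cell death caused by Vpr and the record does not say whether a fall means rescue or toxicity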
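Fission yeast strain RE007, carrying one chromosomally integrated HIV-1 vpr copy, was seeded at OD 0.01 in PMG+AL medium with 23 nL pinned compound. After 24 h at 30 °C and 99% humidity, viability was read by BacTiter-Glo luminescence.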
Lassa entry inh – qHTS for Inhibitors of binding or entry into cells for Lassa Virus | Lassa virus pseudotype entry inhibition, cell reporter; control for the full effect not named in the record | 300,000 compounds, 1.2% hits | Potency, µM (doses to about 37.9 µM), for inactives: at the top dose activity change, negative = inhibition, hits mostly inhibitors; active means well fitted inhibition curve with a large enough effect; inconclusive means small, poorly fitted or top-dose-only effect, or effect the other way; inactive means flat fitted curve, though single readings scatter; tested in HEK293 cells; note: % is set by controls: 0 for no effect and ±100 for the full control effect; nearly all actives have a fitted effect of over 50% in size; luciferase read-out
Cruzain inh Det – qHTS Assay for Promiscuous and Specific Inhibitors of Cruzain (with detergent); purified cruzain, Z-FR-AMC fluorescence, 0.01% Triton; Potency, µM, without a hit: max response, negative = inhibition, hits mostly inhibitors; 200,000 compounds, 0.43% hits;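 note: plate controls were neutral wells for no effect and buffer without enzyme for full effect; nearly all actives have a fitted effect of over 40% in size; top concentration of the series not given in the record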
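Sodium acetate buffer (100 mM, pH 5.5) containing 5 mM DTT and 0.01% Triton X-100 hosted 1.5 nM cruzain and test compound for 15 min at room temperature. Cleavage of 2 uM Z-FR-AMC was then tracked by fluorescence.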
2A StopGo – High Throughput Screening for Foot and Mouth Disease Virus Antivirals. human cells with a luciferase reporter of 2A StopGo recoding; control for the full effect not named in the record. Potency, µM (top dose mostly 57.9 µM), for the others: at the highest dose signal change, negative = less light. 410,000 compounds, 1.2% hits. AID 1159524, 2015; active = well fitted falling curve with a large enough effect; inconclusive = small, poorly fitted or top-dose-only effect; inactive = no such curve, though single readings can be large or run the other way; tested in HEK293T cells; note: % is set by controls: 0 for no effect and ±100 for the full control effect; nearly all actives have a fitted effect of over 45% in size; luciferase light after 4 h
* = called active by the depositor; ? = inconclusive; . = no result given; & = joins results of further samples; [ ] = dose if it differs, or a comment. Unless noted, calls come from the whole dose curve; as a rule, active = well fitted curve in the direction sought with a large enough effect; inconclusive = small, poorly fitted or top-dose-only effect, or another doubt; inactive = no such curve, though single readings can be large; an effect the other way counts as inactive or inconclusive. Potency is the fitted concentration of half-maximal effect. An unsorted share of the library; any-hit rate near 4.6%.

structure	Marburg entry inh	NS1 inh	Cruzain inh noDet	SARS PLpro yeast	RE007 growth inh	Lassa entry inh	Cruzain inh Det	2A StopGo
Cc1cc(C)n2c(SC/C(O)=C(\C#N)c3nc4ccccc4[nH]3)nnc2n1	16.6%	21.9%	-6.0%	-1.2%	17.0%	2.1%	-17.1%	26.9%
O=C(NCc1ccccn1)c1cc2n(n1)C(C(F)(F)F)CC(c1ccco1)N2 (stereo not drawn)	39.9%	1.6%	-9.8%	0.2%	-2.9%	-1.3%	2.8%	-10.7%
CC1CCCN(CCOCCOc2ccc(Cl)cc2Br)C1 (stereo not drawn)	4.61µM*	-29.7%	-2.2%	-1.2%	1.4%	?	-0.3%	-57.1%
COc1ccc(OC)c(C2=Nn3c(nnc3-c3ccco3)SC2)c1	3.7%&3.7%	-11.7%	-12.0%	-2.9%	16.2%	8.8%	-3.5%	-19.3%
COc1ccc(/C=C/C(=O)c2ccc(O)cc2)cc1	.	-38.7%	.	-4.7%	-12.5%	.	.	36.3%[activator]
CCN1CN=C(NS(=O)(=O)c2ccc(C)cc2)NC1	8.6%	9.6%	3.7%	17.1%	6.2%	-6.8%	8.0%	6.8%
CCOCC(=O)Nc1ccc(C)c(Cl)c1	16.3%	-7.2%	-2.0%	-1.1%	8.7%	-2.3%	0.0%	23.0%
Cc1ccccc1NC(=O)CC1C(=O)NCCN1C(=O)c1cccc(Cl)c1 (stereo not drawn)	12.6%	6.8%	24.1%	7.5%	-3.9%	5.6%	-0.8%	-16.2%&-19.8%
COc1cc(C2CC(=O)Nc3c2c(=O)[nH]c2nc4ccccc4n32)ccc1O (stereo not drawn)	4.1%[46.1 µM]	.	-0.4%	.	.	12.3%[46.1 µM]	-1.6%	2.2%
Fc1ccccc1CNCCCSc1nnnn1-c1ccccc1	3.3%[46.1 µM]	.	-3.3%	.	.	-1.3%[46.1 µM]	-1.0%	7.6%
c1ccc2c(c1)Nc1cc3ccccc3cc1O2	?	.	.	.	10.5%	9.8%	.	13.5%
CCOC(=O)c1csc(NC(=O)Nc2cccc(Cl)c2)n1	?	16.9%	.	-13.0%	3.3%	5.7%	4.5%	-26.3%
CC(CN1CCCCC1)C(=O)NN (stereo not drawn)	?	.	.	-1.5%	-29.0%	-0.8%[46.1 µM]	.	-14.5%
CCNC(=O)/C(C#N)=C/c1c(N2CCCCCC2)nc2c(C)cccn2c1=O	?	-3.2%	.	-1.6%	8.4%	8.91µM*	.	-2.3%
Cc1ccc(NC(=O)/C(C#N)=C/c2ccsc2)c(C)c1	10.1%	8.2%	-7.4%	8.3%	16.8%	?	-3.1%	34.6%[activator]
N#Cc1ccc(NC(=O)COc2ccc(-n3cnnn3)cc2)cc1	?	.	.	5.4%	8.8%	-5.5%[46.1 µM]	.	11.5%
CCOc1ccccc1CNS(=O)(=O)c1cnc[nH]1	.	2.0%	.	-8.3%	4.7%	.	.	-23.0%
CCOc1ccc(N=Cc2c(O)c3ccccc3oc2=O)cc1	23.0%	-6.1%	-7.4%	-15.1%	-7.7%	10.4%	-3.4%	-11.3%
COCC(=O)N1CCC(Oc2ccc(C(=O)NCCCC3CCCC3)cc2)CC1	?	-23.1%	.	-4.3%	3.4%	10.8%	.	-15.4%
Cc1ccc(NC2=C(CC(=O)O)C(c3ccccc3)N(c3ccc(C)cc3)C2=O)cc1 (stereo not drawn)	-17.2%	18.0%	4.8%	4.6%	4.3%	?	-6.0%	-2.1%
O=C(COC(=O)/C=C/c1ccc(S(=O)(=O)N2CCOCC2)cc1)NCc1ccc(F)cc1	-5.6%[46.1 µM]	.	.	-2.1%	-1.7%	0.5%	.	-14.9%
Cc1ccc(CN2CCN(C(=O)CC(C)C)CC2)cc1	.	14.4%	.	6.4%	-14.8%	.	.	-15.2%
O=C(NC1CCCC1)c1ccc2c(=O)n(Cc3ccccc3)c(SCc3cccc(F)c3)nc2c1	.	.	-1.8%	.	.	-14.8%[46.1 µM]	-0.7%	-9.6%
COc1ccccc1C(=O)NC(CCSC)C(=O)NNC(=O)c1ccncc1 (stereo not drawn)	-15.8%	.	.	5.8%	-8.1%	17.2%	.	-14.8%
CSc1nc(N)c(C(=O)Nc2ccc([N+](=O)[O-])cc2)s1	.	3.3%	.	?	0.1%	.	.	65.0%[activator]
CCCCNc1ncnc2c1nnn2C	.	.	-4.3%	.	.	-6.1%[46.1 µM]	-0.2%	-7.7%
CCCCCn1c(NCc2ccccc2OC)nc2ccccc21	?	.	0.0%	.	.	-16.0%[46.1 µM]	-3.7%	?
COC(=O)c1ccc2nccnc2c1	-20.8%	-3.3%	.	0.7%	2.4%	-3.1%	.	-4.3%
CC(NC(=O)C12CC3CC(CC(C3)C1)C2)C(=O)NCCN(C)C (stereo not drawn)	?	5.2%	0.9%	0.7%	-7.4%	21.0%	2.8%	-7.7%
CCCCOc1ccc(C(C)NC(=O)C2CCCN(S(=O)(=O)CC)C2)cc1 (stereo not drawn)	15.3%	-1.2%	-19.9%	0.0%	10.1%	-22.4%	4.9%	-21.1%
Cc1ccc(NC(=S)Nc2ccc(F)cc2)cc1	.	-5.2%	.	0.7%	-3.0%	.	.	13.4%
CC(=O)Nc1ccc(N/C=C/C(=O)c2ccc(C)cc2)cc1	.	28.3%	.	7.7%	-4.4%	.	.	35.3%[activator]
Cc1ccc(-c2nc(CS(=O)CC(=O)NC3CCCC3)c(C)o2)cc1 (stereo not drawn)	-0.5%	?	1.7%	6.4%	-10.1%	.	3.3%	-5.6%
CCOC(=O)C1=C2SCCN2C(=O)C(C#N)C1(C)C (stereo not drawn)	16.0%[46.1 µM]	-2.7%	-6.2%	2.6%	21.0%	-12.3%	3.2%	-5.0%
COc1ccc(N2CCN(C(c3ccc4ncccc4c3)c3nnnn3C(C)(C)C)CC2)cc1 (stereo not drawn)	-14.0%&-14.0%[46.1 µM]	.	.	-0.4%	-4.9%	?	.	-12.4%
CCc1c(C)nc2ccc(Br)cc2c1Cl	-0.3%	6.9%	12.5%	-3.6%	-10.4%	15.7%	-1.4%	4.3%
C(=N\Nc1nc(N2CCCC2)nc(N2CCCC2)n1)/c1ccccc1OCc1ccccc1	?	.	.	1.0%	-18.3%	-24.7%[46.1 µM]	.	9.7%
Cn1cccc1C(=O)OCc1csc(-c2ccccc2)n1	?	-59.0%	-18.6%	-20.2%	-29.0%	?	-1.0%	-5.5%
COc1ccc(S(=O)(=O)N2CCC(C(=O)N3CCc4ccccc4C3)CC2)cc1	-21.6%	-30.3%	-16.1%	-8.7%	-1.0%	-16.8%	-3.4%	-16.1%
O=C1/C(=C\c2ccc(Br)o2)SC(=Nc2ccccc2)N1c1ccccc1	?	2.6%	?	-4.6%	-8.5%	-1.9%	-5.4%	-10.6%
Cc1cc(S(=O)(=O)NCC(=O)O)ccc1F	1.9%	5.4%	-2.3%	1.5%	24.7%	0.5%	5.5%	-17.2%
Cc1cc2ccccc2c(=O)[nH]1	13.7%	16.0%	7.6%	4.0%	-7.2%	25.5%	1.3%	.
O=C(O)C1C2CCCCC2=C2CCCCC2C1C(=O)c1ccccc1 (stereo not drawn)	.	-3.0%	.	0.3%	-2.5%	.	.	-6.3%
Cc1ccc(C2CC(c3ccccc3)=NN2C(=O)CSc2nnc(-c3ccncc3)n2C)o1 (stereo not drawn)	8.4%	-7.5%	4.4%	-3.1%	-16.8%	2.5%	-4.9%	-9.4%
O=C(C1CCN(C2CCN(Cc3ccsc3)CC2)CC1)N1CCOCC1	17.9%	16.7%	.	1.8%	-6.9%	2.8%	.	-11.8%
CCCCN(C(=S)NC(=O)c1cc(OC)c(OC)c(OC)c1)c1c(N)n(Cc2ccccc2)c(=O)[nH]c1=O	-7.1%	4.9%	13.4%	5.3%	0.4%	-6.3%	-2.3%	-18.9%
COc1cc([N+](=O)[O-])ccc1NC(=O)NNC(=O)CCc1ccccc1	.	-1.9%	.	?	15.5%	.	.	-10.4%
O=C(c1cccc(Cl)c1)N1CCCC(C(=O)N2CCCCCC2)C1 (stereo not drawn)	-23.1%	1.4%	-3.0%	0.4%	19.3%[3.69 µM]	-10.9%	4.9%	-6.9%
Cc1noc2ncnc(N3CCCC(C(=O)NCCC(C)C)C3)c12 (stereo not drawn)	.	.	-8.0%	.	.	1.7%[46.1 µM]	-3.1%	?
Cc1ccc(N2CCN(C(=O)N3CCOCC3)CC2)c(C)c1	2.9%[46.1 µM]	.	.	-7.4%	32.6%	8.6%	.	23.3%
CC(=O)OC1CC[C@]2(C#N)[C@H]3CC[C@]4(C)[C@H](C5C=CC(=O)O5)CCC4(O)C3CCC2(O)C1 (stereo partly drawn)	.	2.9%	.	-0.8%	1.7%	.	.	?
COc1ccccc1NS(=O)(=O)c1ccc(N/N=C(\C)C(C)C)c([N+](=O)[O-])c1	?	3.8%	-2.5%	-5.3%	-0.4%	?	-4.6%	-9.9%
Cn1c(COc2ccccc2)nnc1SCC(=O)Nc1ccc(S(N)(=O)=O)cc1	11.0%	0.3%	3.5%	8.7%	-9.6%	4.5%	-0.2%	6.5%
O=C1C2ON(c3ccc(Br)cc3)C(c3cccnc3)C2C(=O)N1C1CCCCC1 (stereo not drawn)	0.0%	-23.4%	1.6%	-25.3%	2.9%	17.2%	0.6%	-18.9%
CN1CC(=O)N(CC(=O)N2N=C(c3ccc(Cl)cc3)CC2c2ccco2)C1=O (stereo not drawn)	?	.	.	1.4%	-3.7%	11.7%	.	-2.2%
Cn1c(CCc2ccc(N)cc2)nc2ccccc21	.	-0.5%	.	0.1%	?	.	.	17.1%
